PABP FP inh: PABP-poly(A) binding inhibition; P11940; PABP-poly(A) RNA binding, fluorescence polarization; inhibition, % at 35 µM; hit rate 1% among 290,000;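 active means 50% or more with normal probe brightness, or confirmed in later tests; about a fifth of its hits are not listed in these tables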;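 further: calls also rest on retests at 20 µM and on dose response follow-up; controls were probe without protein and protein plus probe with vehicle; some compounds called inactive have numbers as strong as hits; many hits fall short of the cut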
Target sequence (P11940 whole entry, looked up): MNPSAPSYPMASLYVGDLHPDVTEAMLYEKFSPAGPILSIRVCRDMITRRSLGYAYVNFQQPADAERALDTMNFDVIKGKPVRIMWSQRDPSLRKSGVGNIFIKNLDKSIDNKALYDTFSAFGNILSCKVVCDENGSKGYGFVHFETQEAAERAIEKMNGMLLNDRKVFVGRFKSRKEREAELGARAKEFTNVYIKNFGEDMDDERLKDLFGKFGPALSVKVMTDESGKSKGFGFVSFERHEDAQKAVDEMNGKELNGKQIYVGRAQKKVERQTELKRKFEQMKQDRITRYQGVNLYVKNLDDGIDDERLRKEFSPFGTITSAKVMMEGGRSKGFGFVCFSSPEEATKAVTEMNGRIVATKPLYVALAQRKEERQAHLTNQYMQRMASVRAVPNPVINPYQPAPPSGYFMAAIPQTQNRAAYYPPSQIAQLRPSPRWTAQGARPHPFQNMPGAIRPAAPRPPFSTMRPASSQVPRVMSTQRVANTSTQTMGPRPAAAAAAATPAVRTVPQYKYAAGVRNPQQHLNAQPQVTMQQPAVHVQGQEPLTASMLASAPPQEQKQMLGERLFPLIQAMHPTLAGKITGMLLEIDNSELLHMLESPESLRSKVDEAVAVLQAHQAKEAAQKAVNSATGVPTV
MT1-MMP act inh: MT1-MMP (human) activation inhibition | P50281 | HT1080 RFP-PRO-GFP cells, GFP/RFP ratio fluorescence, overnight; percent of plate control window, DMSO zero | GFP/RFP ratio change, % at 20 µM | hit rate 0.061% among 360,000;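 active means GFP/RFP ratio change of at least 30% with cell ATP level not reduced by more than half and red fluorescence within 50% of control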; further: strong numbers were not always called active
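Test system: HT1080 cells expressing an RFP-PRO-GFP fluorescent reporter construct / Compound dosing: single-point 20 µM compound, 1% DMSO / Schedule: cells overnight before dosing, compound overnight, 37 °C, 5% CO2 / Evaluation: GFP/RFP fluorescence ratio / Control set: DMSO and RFP-L50D-GFP cell wells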
Env fusion inh: blocks HIV Env-driven cell-cell fusion; HeLa-JRFL Env/CEM21 cell fusion, luciferase; AID 651610; hit rate 1.1% among 360,000; inhibition, % at 12.3 µM;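 active means mean replicate inhibition score of at least 50 and every replicate individually at or above 50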;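 further: 0% = plate neutral controls and 100% = maraviroc near 300 nM; one replicate is shown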
Rce1 inhib: blocks yeast Ras-converting enzyme; calls only; yeast membranes, quenched prenylated peptide cleavage fluorescence; Q03530; hit rate 0.27% among 290,000;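 active means fall in fluorescence gain of 50% or more versus controls, with final raw signal at or below 3038400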;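 further: plate controls were neutral control wells for no effect and wells lacking membranes for full effect; tested at 10 µM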
CSC inhib: blocks cancer stem cells; cancer stem cell-like cells viability, luminescence; inhibition, % at 7.5 µM; hit rate 1.1% among 300,000; AID 2717;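 active means mean at 75% or more and at least half the replicates too; tested in HMLE shEcad cells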;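 further: 0% = median of negative and 100% = median of positive control wells; the first replicate is given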
eIF4H FP inh: inhibitors of RNA binding by human eIF4H; Q15056; hit rate 0.94% among 290,000; eIF4H fluorescence polarization binding assay; inhibition, % at 35 µM;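 active means 50% or more with normal probe brightness, or confirmed in later tests; about a fifth of its hits are not listed in these tables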;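 further: calls also rest on retests at 20 µM and on dose response follow-up; 0% = protein and probe with vehicle and 100% = probe without protein; strong numbers were not always called active; many hits fall short of the cut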
Yeast UUG start: modulators of start codon recognition fidelity in yeast; S. cerevisiae UUG-firefly luciferase reporter, luminescence/redox ratio; activity score, % at 18.7 µM; hit rate 0.13% among 350,000;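 active means replicate mean at a twofold rise or more, about +100% in these data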;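 further: firefly luciferase made from a UUG start codon reports start codon fidelity; reporter light over untreated wells divided by growth signal over untreated wells; some hits fall short of that in this replicate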
eIF4H FP inh retest: also measured in eIF4H FP inh; calls as there; inhibition, %; compound at 20 µM; confirmation average;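 mean of two retest wells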
PABP FP inh retest: second read-out of PABP FP inh, no call of its own (marks repeat the call); inhibition, %; compound at 20 µM; confirmation repeats;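 mean of two retest wells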
MT1-MMP act inh RFP: recorded beside MT1-MMP act inh, whose call it bears; RFP signal change, %; measured here: RFP expression control read;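 0 = vehicle wells; hits needed this value within 50% of zero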
* = called active by the depositor; i = inactive; nt = not tested or not shown; + = active, no number. An excerpt (hit frequency here may not be typical).

SMILES	PABP FP inh	MT1-MMP act inh	MT1-MMP act inh RFP	Env fusion inh	Rce1 inhib	CSC inhib	eIF4H FP inh	Yeast UUG start	others
COc1cc(C(=O)Nc2ccc(C)cc2C(NCC(=O)NN)c2ccccc2)cc(OC)c1OC (centres undefined)	-2	1	5	19	i	-10	4	-13
CC(=O)c1ccc(NC(=O)/C(C#N)=C/c2ccncc2)cc1	2	0	4	nt	i	-3	7	-6
CCOCC(=O)Nc1ccc(F)c(F)c1	-9	0	4	nt	i	2	0	-8
COc1ccc(S(=O)(=O)N2CCCCCC2)cc1C(=O)N(C)Cc1c(F)cccc1Cl	nt	-4	-6	3	nt	5	nt	21
CCCCN1CCC(COC(=O)c2cc(Cl)c(N)c3c2OCCO3)CC1	nt	3	10	-10	nt	10	nt	-8
O=C(c1cccc(-c2ccccc2F)c1)N1CC[C@@H](N2CCC(O)CC2)[C@H](O)C1	-17	2	5	-90	i	-5	2	-1
Cc1nc2ccc(S(=O)(=O)Nc3cccc(-c4nc5cccnc5s4)c3)cc2s1	9	2	3	0	i	44	4	12
Clc1ccccc1OCc1nn[nH]n1	-3	0	3	-7	i	0	-5	nt
O=C1CCCC2=C1C(O)(C(F)(F)F)C(=O)N2Cc1ccccc1 (centres undefined)	1	-1	-3	12	i	-8	1	-7
O=C(OCC(=O)N1CCCCCC1)c1ccc([N+](=O)[O-])cc1Cl	-10	-3	-3	-4	i	4	4	nt
COc1ccc(S(=O)(=O)Nc2ccccc2C(=O)N2CCOCC2)cc1OC	-4	1	5	-6	i	-20	0	-5
O=C(Cn1cncn1)N/N=C/c1ccccc1O	0	7	6	7	i	3	17	nt
Cc1n[nH]c(C)c1S(=O)(=O)N1CCN(C2CCCCC2)CC1	1	1	-1	nt	i	-3	-3	-13
Cc1ccc(C)c(OCC(O)CN2CCC(CN3C(=O)c4cccc5cccc(c45)C3=O)CC2)c1 (centres undefined)	-5	-12	-24	nt	i	33	-12	nt
CN(C(=O)c1cccc(C#N)c1)c1nnc(-c2cnccn2)s1	5	3	5	-201	i	-8	6	-17
CCN(CC)c1cc2nc(C)n(Cc3ccccc3)c(=O)c2cc1NC(=O)C1CC1	-10	0	-5	nt	i	-2	2	-7
Cc1ccc(Cn2nnc3c(=O)[nH]c(C4CCCN(S(=O)(=O)c5ccccc5)C4)nc32)cc1 (centres undefined)	1	-4	-2	nt	nt	20	-2	-8
CC(=O)N1C(=S)NC(=O)/C1=C1/C(=O)N(CC(=O)Nc2cccc(C)c2)c2ccccc21	13	5	0	8	i	16	46	nt
COC(=O)c1nc(N)sc1-c1ccc(Cl)c(Cl)c1	-7	6	-1	-32	+	-11	0	-27
CC(C)n1ncc2c(C(=O)N3CCN(S(=O)(=O)c4cccc(F)c4)CC3)cc(C3CC3)nc21	nt	1	4	-10	nt	nt	nt	2
CC(C)(C)NC(=O)C[C@H]1C[C@H](C(=O)N2CCCCC2)[C@@]2(C)c3[nH]c4cc(-c5ccco5)ccc4c3CCN2C1=O	nt	-4	-7	-5	nt	nt	nt	-3
Cc1ccc(CN2CCN(/N=C/c3cc([N+](=O)[O-])ccc3Cl)CC2)cc1	-6	0	2	nt	i	33	-3	-12
CC(=O)Oc1ccc(C(=O)Nc2ccccc2C(=O)Nc2ccc(C(=O)O)cc2)cc1	2	1	2	9	i	19	6	-11
COc1cc(NC(=S)NC(=O)c2cc(C)cc(C)c2)ccc1NC(=O)c1cccs1	-8	3	-1	nt	i	14	-8	-14
CC1=C([N+](=O)[O-])C(c2ccc(Cl)cc2)NC(=O)N1 (centres undefined)	-5	0	-3	-3	i	-14	7	3

Further records follow.
SMILES	PABP FP inh	MT1-MMP act inh	MT1-MMP act inh RFP	Env fusion inh	Rce1 inhib	CSC inhib	eIF4H FP inh	Yeast UUG start	others
Cc1csc(=NC(=O)c2ccccc2)n1CCO	1	-3	-4	-84	i	-7	-2	-20
CC(CN1CCCCC1)OC(=O)Cc1ccc(Cl)cc1 (centres undefined)	-5	-5	-1	-13	i	nt	-5	-6
O=C1CN(C(=O)/C=C/c2ccco2)c2ccccc2N1	14	-2	4	3	i	-10	71*	-14	eIF4H FP inh retest=81*;PABP FP inh retest=44
CCc1nnc(NC(=O)CSc2nc(C)nc3c2c(=O)n(C)c(=O)n3C)s1	-9	-1	1	3	i	-2	2	-3
COC(=O)c1[nH]c2c(c1C)C(=O)CC(c1ccc(OC)cc1)C2 (centres undefined)	-4	-1	-5	-4	i	-11	9	-6
COc1ccc(/C=C(\NC(=O)c2ccc(C)cc2)C(=O)NCCN2CCOCC2)cc1	-4	-3	-4	9	i	nt	-3	-8
CCOc1c2ccc(C(=O)N[C@H](C)C3CCCCC3)cc2nn1CCOC	8	1	-3	nt	i	21	0	-5
Cc1noc(C)c1C(=O)Nc1ccc(F)c(F)c1	1	-4	1	nt	i	-2	-1	-15
CCCCN(CCCNC(=O)C1CCN(S(=O)(=O)N2CCOCC2)CC1)Cc1ccccc1	-5	-2	1	nt	nt	nt	-2	-7
Cc1ccc(C(O)c2ncc(-c3cccc4ccccc34)[nH]2)c(C)c1 (centres undefined)	nt	-2	0	20	nt	nt	nt	-15
COc1ccc(NS(=O)(=O)c2ccc3c(c2)N(C(C)=O)CCO3)c(OC)c1	8	2	1	-6	i	0	1	-9
CC1CCCC(NC(=O)COC(=O)CCSc2ccccc2)C1C (centres undefined)	2	1	1	-1	i	4	2	0
CCc1nnc(NC(=O)c2cc(S(=O)(=O)N(C)c3ccc(OC)cc3)ccc2Cl)s1	6	4	4	4	i	-10	-15	-11
Cc1nn(C)c(Oc2ccc(Cl)cc2)c1C(=O)Nc1ccc(F)cc1F	-6	-3	-13	nt	i	-11	0	-12
CN(c1ccccc1)S(=O)(=O)c1ccc2[nH]c(=O)[nH]c2c1	-4	0	1	1	i	-13	-16	-12
Cn1c(-c2cccc3ccccc23)n[nH]c1=S	-5	-1	4	-482	i	0	-12	-1
O=C(O)c1cc2ccccc2c2cc(Br)ccc12	3	0	5	-12	i	-8	-5	-13
CCOc1ccc(N2CC(C(=O)NCCN3C(=O)S/C(=C\c4cccnc4)C3=O)CC2=O)cc1 (centres undefined)	-10	16	-2	14	i	-7	-2	nt
CCCNC(=O)C(Cc1ccccc1F)NC(=O)c1ccccn1 (centres undefined)	nt	5	2	-26	nt	-27	nt	-11
CCOC(=O)Cc1cc(OC)c(OC)cc1Cc1cc(OC)c(OC)cc1CC(=O)OCC	-7	4	3	-16	i	5	0	-11
O=C(CCCCCBr)N1CCC(CC2CC(c3ccc(Cl)cc3)=NO2)(C(=O)NCC2CCCCC2)CC1 (centres undefined)	5	-3	-6	-7	i	-5	-2	3
COc1cccc(C2=CC(=O)C[C@H](c3ccc(F)cc3)C2)c1	nt	3	4	10	nt	22	nt	-3
CC(C)C(=O)Nc1ccc(N2CCN(S(C)(=O)=O)CC2)cc1	-13	-8	-1	nt	i	11	2	-13
O=C(OCCCN=C1NS(=O)(=O)c2ccccc21)c1cccs1	-6	-3	2	-24	i	-4	2	-7
Cc1nnc(SC2CC(=O)N(c3ccccc3)C2=O)s1 (centres undefined)	-1	1	3	nt	i	22	-5	-19

Next section
SMILES	PABP FP inh	MT1-MMP act inh	MT1-MMP act inh RFP	Env fusion inh	Rce1 inhib	CSC inhib	eIF4H FP inh	Yeast UUG start	others
Cc1ccc(Cn2c(C)c(C(=O)NCC(C)C)sc2=O)cc1	nt	3	-3	-2	nt	nt	nt	-8
CC(C)NC(=S)N1CCn2c(nc3ccccc32)C1	14	0	2	-11	i	-8	14	-21
CCSc1nnc(NC(=O)c2cc(-c3ccc(C)c(C)c3O)n[nH]2)s1	-11	0	-1	16	i	nt	-8	nt
Cc1cc(NC(=O)c2ccco2)ccc1NC(=O)Cc1cccs1	16	4	2	nt	i	-8	-4	-21
COc1ccc(C(=O)NCC(=O)NCC(=O)OCc2ccc(Cl)cc2)cc1	-15	2	-1	-1	i	-16	-7	-3
CCOc1ccccc1NC(=O)Nc1ccc(Br)cn1	1	-2	5	-9	i	-16	-1	-16
CN1C(=O)N(C)C2C1NC(=O)N2C (centres undefined)	9	-2	1	nt	i	-5	4	-7
C/C(=N\NC(=O)Cc1ccc([N+](=O)[O-])cc1)c1cccnc1	11	2	2	-5	i	-7	-2	-8
COc1ccccc1N(CC(=O)N1CCN(c2ccc(F)cc2)CC1)S(=O)(=O)c1ccc(C)cc1	0	-2	-3	2	i	-7	7	-14
Cc1cc(NS(=O)(=O)c2ccc(C(C)C)cc2)no1	-3	-1	3	-1	i	10	-5	0
CCC(C)NC(=O)c1ccc(CSc2nc3ccncc3n2Cc2ccc(F)cc2)cc1 (centres undefined)	6	-5	2	-14	i	-6	3	7
Cc1cc(NC(=O)CN2CCN(S(=O)(=O)c3ccc(Cl)cc3)CC2)no1	-4	-3	4	-2	i	nt	-7	-8
Cc1ccc(NC(=O)CN(C)C(=O)c2ccc(NS(=O)(=O)c3cccc([N+](=O)[O-])c3)cc2)cc1	nt	2	6	1	nt	3	nt	12
Cc1ccc(NC(=O)C(C)N2C(=O)c3ccccc3C2=O)cc1S(=O)(=O)N1CCOCC1 (centres undefined)	-3	1	4	-7	nt	nt	-1	nt
CC1(C(=O)N/N=C/c2ccc([N+](=O)[O-])o2)CC1(Br)Br (centres undefined)	5	-11	-7	-12	i	-14	28	nt
COCCNC(=O)C(C)Oc1ccc(Cl)cc1Cl (centres undefined)	-8	3	2	nt	i	-14	3	-10
Cc1cccc(N2N=C(C(=O)N3CC(=O)Nc4ccccc43)CCC2=O)c1	7	-1	3	3	i	-7	3	nt
Cc1cc(Cn2nnnc2-c2ccncc2)cc(C)c1O	6	7	-6	-2	i	-1	1	-14
Nc1nc2ccccc2n1C(=O)c1ccc(F)cc1	-3	9	0	-83	i	10	-2	nt
O=C(CCc1ccccc1)Nc1ccccc1	8	5	4	-6	i	-4	-6	nt
Cc1cc2ccccc2c(=O)n1CC(=O)NCC(=O)N1CCN(c2ccccc2)CC1	1	5	-3	-33	i	-6	3	17
Cc1ccc(C(=O)NCC(=O)OCC(=O)N2CCCc3ccccc32)cc1	-7	4	2	-17	i	-5	7	-30
Cc1cc(NC(=O)CCCN2C(=O)/C(=C/c3ccccc3Cl)SC2=S)no1	-7	2	2	-11	i	-8	4	-18
CCN(CC)S(=O)(=O)c1ccc(C)c(N=C=S)c1	-3	0	3	15	i	-4	1	nt
CCOC(=O)C1(Cc2ccccc2C)CCCN(C(=O)c2ccc3nccnc3c2)C1 (centres undefined)	9	0	-2	12	i	-9	-2	-18
O=C(Nc1ccc(Oc2cccnc2)cc1)c1ccc([N+](=O)[O-])cc1	11	3	-13	14	i	nt	-2	nt
O=[N+]([O-])c1cc([N+](=O)[O-])c(Oc2cc(F)cc(F)c2F)cc1NN1CCCCC1	-3	-4	0	8	i	37	0	-7
Cc1ccc2[nH]c3c(=O)n(Cc4ccccn4)cnc3c2c1	-3	9	-11	nt	i	-19	1	3
Cc1ccc(NC(=O)COC(=O)CC2CCCC2)cc1F	nt	2	4	nt	nt	-17	nt	-5
O=C(c1ccc(N2CCN(C3CC(=O)N(c4ccc(F)cc4)C3=O)CC2)cc1)c1cccnc1 (centres undefined)	6	nt	nt	nt	i	nt	-15	nt

3 records picked at random from the list so far, as already listed:
SMILES	PABP FP inh	MT1-MMP act inh	MT1-MMP act inh RFP	Env fusion inh	Rce1 inhib	CSC inhib	eIF4H FP inh	Yeast UUG start	others
Cc1ccc(NC(=O)CN(C)C(=O)c2ccc(NS(=O)(=O)c3cccc([N+](=O)[O-])c3)cc2)cc1	nt	2	6	1	nt	3	nt	12
Cc1cc(NC(=O)c2ccco2)ccc1NC(=O)Cc1cccs1	16	4	2	nt	i	-8	-4	-21
Cc1cccc(N2N=C(C(=O)N3CC(=O)Nc4ccccc43)CCC2=O)c1	7	-1	3	3	i	-7	3	nt
